# D2 agonist: activates the human D2 dopamine receptor; P14416; DiscoveRx PathHunter D2 beta-arrestin, luminescence, 90 min; 100% = 57 uM dopamine signal; activation, % (test concentration not listed); 360,000 tested, 0.084% active; AID 624465; in the data active = activation above about 40%; inconclusive = about 15% to 40%; inactive = below about 15%; also: compound concentration not given in the record; the text of the record calls up to 30% inactive
# Target sequence (P14416 whole entry, looked up): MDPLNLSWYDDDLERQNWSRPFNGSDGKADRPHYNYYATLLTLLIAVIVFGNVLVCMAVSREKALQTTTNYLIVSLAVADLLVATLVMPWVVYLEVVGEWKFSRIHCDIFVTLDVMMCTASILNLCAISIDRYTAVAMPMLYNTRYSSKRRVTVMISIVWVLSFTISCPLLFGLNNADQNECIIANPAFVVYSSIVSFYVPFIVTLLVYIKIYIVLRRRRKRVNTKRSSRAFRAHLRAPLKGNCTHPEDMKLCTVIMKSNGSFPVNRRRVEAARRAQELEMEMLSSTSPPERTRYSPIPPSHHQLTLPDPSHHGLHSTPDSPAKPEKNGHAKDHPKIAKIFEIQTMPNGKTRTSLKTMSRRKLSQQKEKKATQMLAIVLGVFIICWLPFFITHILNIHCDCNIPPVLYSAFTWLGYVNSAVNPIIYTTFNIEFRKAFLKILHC
#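 Agonist mode: compounds alone added to overnight-plated D2 PathHunter cells for 90 min at 37 C, with 57 uM final dopamine (EC100) defining full response. Beta-arrestin recruitment detected by chemiluminescent reagent, read after 1 h at ambient temperature.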
# D2 PAM: positive allosteric modulators of human D2 dopamine receptor; 360,000 tested, 0.23% active; potentiation, % (concentration not given with the values); P14416; DiscoveRx D2 beta-arrestin cells, luminescence, 90 min; 100% = 57 uM dopamine signal; AID 624464; active = potentiation of 50% or more; inconclusive = 30% to 50%; inactive = 30% or less;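 also: compound concentration not given in the record; tested on top of an EC20 dose of dopamine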
#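 D2 cells co-treated with compound plus 50 nM dopamine (EC20) for 90 min at 37 deg C to detect potentiation. Beta-arrestin recruitment was read as enzyme-fragment luminescence after 1 h at ambient temperature. Full response was set by 57 uM dopamine.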
# TRPML1 ag: activates the human TRPML1 channel. TRPML1-expressing cells, Ca2+ dye fluorescence, FDSS; host cell line not named in the record; reference of the full effect not given here. 410,000 tested, 0.12% active. Q9GZU1. activation, % (test concentration not listed); in the data active = activation above about 50%; inconclusive = about 30% to 50%; inactive = below about 30%; also: 0% is about no effect; the text of the record puts the active cut at 80%
# Target sequence (Q9GZU1 whole entry, looked up): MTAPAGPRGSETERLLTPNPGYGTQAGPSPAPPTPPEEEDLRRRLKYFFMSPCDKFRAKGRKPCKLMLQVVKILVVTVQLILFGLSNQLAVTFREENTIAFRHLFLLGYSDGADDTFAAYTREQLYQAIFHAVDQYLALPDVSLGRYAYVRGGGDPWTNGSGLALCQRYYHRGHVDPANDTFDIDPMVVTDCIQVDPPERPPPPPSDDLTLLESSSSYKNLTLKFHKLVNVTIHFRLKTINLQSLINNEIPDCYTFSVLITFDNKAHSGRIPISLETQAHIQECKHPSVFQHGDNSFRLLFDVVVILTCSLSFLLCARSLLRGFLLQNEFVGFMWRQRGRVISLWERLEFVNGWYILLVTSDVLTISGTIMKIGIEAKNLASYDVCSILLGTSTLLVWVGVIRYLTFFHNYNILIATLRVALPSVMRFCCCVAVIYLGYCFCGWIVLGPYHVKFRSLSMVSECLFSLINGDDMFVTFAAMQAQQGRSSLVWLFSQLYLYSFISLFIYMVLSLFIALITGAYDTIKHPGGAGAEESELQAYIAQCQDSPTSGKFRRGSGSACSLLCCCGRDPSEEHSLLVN
#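 Tet-induced TRPML1-DL cells, 1,500 per well, cultured overnight, were loaded with a no-wash Ca2+ dye for 45–90 min. Calcium fluorescence was recorded on the FDSS for 110 s after compound addition, before the EC80 agonist (4 uM 54-4) was added.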
# PINK1 expr mod: PINK1 expression modulation; PINK1 immunofluorescence, high-content cytometry, 24 h; Potency, µM (doses to about 76.6 µM), for inactives: top-dose activation (PINK1 increase), most hits filed as activators; 410,000 tested, 0.2% active; AID 624263; active = well fitted activation curve with a large enough effect; inconclusive = small, poorly fitted or top-dose-only effect; inactive = flat fitted curve, though single readings scatter; cell line not stated here;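 also: potency is read from the fitted curve at half-maximal effect; % of control where 0% means no effect; nearly all actives have a fitted effect of over 65% in size; a mitochondrial uncoupler was the plate control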
#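 Fluorescence from anti-PINK1 antibody, together with nuclear and cell stains, was scanned on a laser-scanning cytometer. Before staining, stable-line cells were incubated 24 hours with compounds at 5 concentrations; primary antibody 12 h at 10 degrees C.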
# Six1-Eya2 inh: Six1/Eya2 interaction inhibition. AlphaScreen GST-Six1/His-Eya2 binding, biochemical; hits give low values; control for the full effect not named in the record. Q15475+O00167. activity change, % (test concentration not listed). 360,000 tested, 0.56% active; in the data active = activity change below about -65%; inconclusive = about -30% to -65%; inactive = above about -30%; also: % is scaled to controls: 0 for no effect and ±100 for the full control effect; compound concentration not given in the record
#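 AlphaScreen luminescence read after one hour at 37 °C in darkness. Pin-transferred compounds met GST-Six1 and His-Eya2 protein (5X stock 250 nM/500 nM) plus glutathione donor and Ni-chelate acceptor beads (5X, 50 ug/mL).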
# TRPML1 inh: inhibitors of human TRPML1 channel. 390,000 tested, 0.02% active. TRPML1-inducible cells, Ca2+ dye fluorescence, FDSS; hits give low values; inhibition of EC80 agonist-evoked calcium signal. Q9GZU1. activity change, negative = inhibition, % (no concentration beside the values). AID 624415; in the data active means activity change below about -50%; inconclusive means about -30% to -50%; inactive means above about -30%;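 also: stimulus is agonist 54-4 at its EC80 concentration; % is scaled to controls: 0 for no effect and ±100 for the full control effect; compound concentration not given in the record; the text of the record puts the active cut at -80%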
#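 Tet-induced TRPML1-DL cells loaded with Ca8 no-wash calcium dye were read kinetically on FDSS. Compound addition was followed by EC80 agonist 54-4 (4 uM final); inhibition was read over 110 s.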
# The depositor's hits bear a star; u = inconclusive; x = not tested or not shown; & = joins results of further samples; [ ] = dose if it differs, or a comment.
canonical_smiles	D2 agonist	D2 PAM	TRPML1 ag	PINK1 expr mod	Six1-Eya2 inh	TRPML1 inh
O=C(c1ccccn1)N1N=C2/C(=C/c3ccccc3)CCCC2C1c1ccccc1 (stereo unspecified)	0.3	-4	2.0	0.2%	2	22
C/C(=N\Nc1ccc([N+](=O)[O-])cc1)c1ccc(-n2nncc2C)cc1	-5.2	-33	1.1	-1.5%	8	5
CCn1c(COc2cccc(C)c2)nc2ccccc21	9.2	14	-1.0&-0.6	2.5%&-0.6%	11	-2&-8
CCOC(=O)c1c(C)cc(C)[nH]c1=O	-2.3	-10	2.0	-0.1%	2	7
COc1ccc2[nH]cc(CCNC(=O)c3ccco3)c2c1	1.4	-2	-0.2	0.1%	-4	0
CCN(CC)c1ccc(NS(=O)(=O)c2cc(-c3cc(C)no3)ccc2C)c(C)c1	x	x	1.9	-0.4%	x	1
O=C(CCn1c(=O)c2ccccc2n(Cc2ccc(F)cc2Cl)c1=O)NCc1ccc2c(c1)OCO2	x	x	-1.0	1.3%	x	-15
Cc1ccccc1NC(=O)COc1nsnc1N1CCOCC1	-3.3	-6	1.4	-3.7%	-4	10
O=S1(=O)c2ccc(Br)cc2N2CC[C@H](C2)N1Cc1ccc(Cl)cc1	-0.3	-7	-0.4	4.7%	-1	1
Cc1ccccc1OCc1nnc(SCC(=O)Nc2ccc3c(c2)oc2ccccc23)n1C	-1.6	-10	0.6	13µM*	2	-29
O=c1c2ccccc2nc(N/N=C/c2ccccc2)n1O	-1.9	2	-0.3	-0.6%	5	3
CCc1nc2ccc(C(=O)N3CCN(C(=O)c4ccco4)CC3)cn2c1N(C=O)Cc1ccc(OC)cc1	-3.5	-9	-0.4	-0.5%	-19	24
O=C(COc1ccc2c3c(c(=O)oc2c1)CCCC3)NCc1ccncc1	0.0	-7	-0.4	5.8%	0	16
COc1ccccc1N1CCN(CCCNC(=O)Nc2ccccc2C)CC1	2.2	-12	-0.3	5.9%	-5	15
Cc1ccc(N=C2NC(=O)C(CC(=O)O)S2)cc1 (stereo unspecified)	-2.1	4	0.9	0.3%[38.3 µM]	0	1
N#Cc1cccc(NC(=O)c2cc(C3CCCCN3C(=O)c3ccccc3)on2)c1 (stereo unspecified)	-6.8	0	0.1	0.4%	-9	x
COCCN(Cc1ccccc1)C(=O)Cc1ccc(S(=O)(=O)N2CCOCC2)s1	-8.6	-3	0.4	1.2%	1	-4
CN(Cc1ccccc1)C(=O)c1[nH]cnc1C(=O)Nc1nccs1	-0.6	-5	1.7	-0.5%	-74*	-12
C=CCOC(=O)C1=C[C@H](c2csc3ccccc23)C[C@H](OCc2ccc(CO)cc2)O1	-2.9	-8	-0.3	0.4%	-10	8
CCOCCCNC(=O)C(c1ccc(Cl)cc1)N(Cc1cccs1)C(=O)c1ccc(NC(C)=O)cc1 (stereo unspecified)	x	x	0.1	1.7%	x	11
CCO[C@H]1OC(C(=O)O)=C[C@@H](c2csc3ccccc23)[C@@H]1CCCO	-0.2	-3	0.2	0.9%	-3	0
CCc1nc2c(OCc3ccc(OC(F)F)cc3)cccn2c1N(C)C(=O)c1ccc(OC)cc1	-1.7	-11	0.2	-0.9%	-14	-10
Cc1ccccc1Nc1nc(N)nc(COC(=O)c2cccc(S(=O)(=O)N(C)C)c2)n1	2.6	-24	0.9	3.2%	-1	7
CCNC(=O)NC(=O)C(C)OC(=O)c1cccn1C (stereo unspecified)	-4.1	-3	0.6	0.5%	4	-21
COc1ccc(C2/C=C\CN(C(=O)NC34CC5CC(CC(C5)C3)C4)CC(=O)N2Cc2ccc(F)cc2)cc1 (stereo unspecified)	1.6	-16	0.0&-0.7	-1.3%	-9	9&4
Cc1cccc(C)c1OCc1cc(C(=O)N2CCN(Cc3nccn3C)CC2)no1	-3.5	-11	-0.3	4.2%	-6	17
CCCCN(C)CCCNC(=O)c1cn(C)c2ccc(S(=O)(=O)N(C)C3CCCCC3)cc2c1=O	0.3	-16	0.3	-1.1%	-4	-9
CC[C@@H](C)[C@H](C(CC(=O)N1CCCC1[C@@H](OC)[C@H](C)C(=O)N[C@H](Cc1ccccc1)c1nccs1)OC)N(C)C(=O)[C@H](NC(=O)[C@@H](C(C)C)N(C)C)C(C)C (stereo partly specified)	-2.4	-21	-0.2	0.9%	7	-11
CCOC(=O)c1sc(N(Cc2ccccc2)C(=O)COC(=O)c2cnccn2)nc1C	2.1	-5	-0.3	5.0%	0	0
O=C(NCCN1CCOCC1)c1cc(=O)[nH]c2ccc(Br)cc12	-0.7	-4	0.8	-0.1%	10	-23
Cc1ccc(NC(=O)Cc2ccc(F)cc2)cc1	-2.4	-19	-0.6	x	1	0
Cc1ccc(N=C2c3ccccc3C(=O)C2[N+](=O)[O-])cc1C (stereo unspecified)	-3.9	-11	1.6	0.0%	0	3
COCCNC(=O)CN1C(=O)COc2ccc(S(=O)(=O)N3CCCCCC3)cc21	-3.5	-1	-0.6&-0.5	-0.7%&2.8%	1	46&16
Nc1nnc(Cc2ccc(F)cc2)s1	-6.0	-20	-1.2	3.1%	-1	4
Cc1ccc(C)c(OCCN2CCOCC2)c1	-3.9	-4	0.2	0.5%	1	-6
Cc1ccc(C(=O)CSc2nc(C(C)C)nc3ccccc23)cc1	0.4	-6	-0.2	1.9%	2	-9
CCc1ccc(-n2nc(C)c3c(C)cc(=O)n(CC(=O)Nc4ccccc4C(=O)OC)c32)cc1	x	x	-0.3	-0.5%	x	-22
COc1cccc(CNCC(=O)Nc2ccc(N3CCOCC3)cc2)c1	-0.2	-4	1.0	2.5%	7	-14
CCOC(=O)c1ccc(N(CC(=O)NC2CCCC2)C(=O)CNC(=O)c2ccco2)cc1	-2.3	6	-0.5	-0.8%	-2	8
O=C1C=C(c2cc(Cl)cc(Cl)c2)C[C@@H](c2ccc(F)cc2)C1	-5.0	3	0.5	0.3%	-3	1
Cc1noc(C)c1S(=O)(=O)Nc1ccc(C(=O)N2CCCCC2)cc1	-0.2	6	0.5	2.9%[38.3 µM]	5	10
CCSc1nnc(NC(=O)c2nn(C(C)C)c(=O)c3ccccc23)s1	-1.8	-12	1.0	1.2%	-16	-6
COc1cccc(OC)c1C(=O)OCC(=O)N1CC(C)CC(C)C1 (stereo unspecified)	-0.8	-14	0.1	-1.6%	-2	22
CCc1nc2c(OCC(=O)C(C)(C)C)cccn2c1N(C=O)Cc1ccc(OC)cc1	-6.2	-6	3.4	1.8%	-4	2
O=C(CN(Cc1ccccc1F)C(=O)c1csnn1)NC1CCCCC1	0.6	-6	-0.3	3.7%	5	1
CCN(CC)c1ccc2cc(-c3nc(-c4ccc(OC)cc4)cs3)c(=O)oc2c1	u	25	118*	u	131	-26
CCc1nc2ccccc2n1CCCCOc1ccc(C)cc1	x	x	3.3	16%	x	0
CCN(CC)c1ccc(/C=N/OCC(=O)N2CCCc3ccccc32)cc1	-2.7	-5	1.6	u	-29	-4
N#CCC(=O)Nc1ccc(C(=O)OCC(=O)N=c2sccn2Cc2ccccc2Cl)cc1	3.5	-3	-0.1	4.6%	-6	-3
O=C(CN1C(=O)c2ccccc2C1=O)Nc1nnc(C2CCCO2)s1 (stereo unspecified)	3.1	-5	-0.2	u	0	-8

# 2 entries from above, with values under each structure.
# Values run as follows: D2 agonist	D2 PAM	TRPML1 ag	PINK1 expr mod	Six1-Eya2 inh	TRPML1 inh
- C=CCOC(=O)C1=C[C@H](c2csc3ccccc23)C[C@H](OCc2ccc(CO)cc2)O1
 : -2.9	-8	-0.3	0.4%	-10	8
- Cc1noc(C)c1S(=O)(=O)Nc1ccc(C(=O)N2CCCCC2)cc1
 : -0.2	6	0.5	2.9%[38.3 µM]	5	10

# Following part
canonical_smiles	D2 agonist	D2 PAM	TRPML1 ag	PINK1 expr mod	Six1-Eya2 inh	TRPML1 inh
COc1ccc(N2CCN(S(=O)(=O)c3ccc4c(c3)CC(C)N4C(=O)C3CC3)CC2)cc1 (stereo unspecified)	-2.1	-10	-0.9	7.2%	3	-11
O=C(CSc1nccn1Cc1ccccc1)NCc1ccc(F)cc1	x	x	-0.1	-5.4%	x	22
C[C@@H]1CCCCO[C@@H](CN(C)C(=O)c2ccncc2)[C@@H](C)CN([C@H](C)CO)C(=O)c2cc(NC(=O)Cc3ccccc3)ccc2O1	0.3	x	x	0.0%	-3	x
COc1ccccc1NC(=O)C1=C(C)Nc2nnnn2C1c1cccc(Br)c1 (stereo unspecified)	-2.0	-6	-0.1	x	3	4
CCc1nc2ccc(C(=O)Nc3cccc(OCC(=O)N(C)C)c3)cn2c1N(C)Cc1cc2ccccc2s1	u	27	-0.2	0.4%	-7	-5
CCCNC(=O)C1(C)CCCN(Cc2ccc3c(c2)OCO3)C1 (stereo unspecified)	-4.5	-15	0.2	0.1%	5	0
CN(C)/C=C(\C#N)S(=O)(=O)C(C)(C)C	-5.1	1	0.5	-2.0%	22	4
COc1cc(CN2CCN(S(=O)(=O)c3ccc(NC(C)=O)cc3)CC2)cc(OC)c1O	2.3	12	0.8	x	0	-12
CSc1ncccc1C(=O)N1CCCC(CCC(=O)NCc2ccc(F)c(F)c2)C1 (stereo unspecified)	-0.8	-8	0.0	-0.9%	-2	16
COc1ccc(C)cc1NC(C)C(=O)NC(=O)NC1CCCCC1 (stereo unspecified)	-0.4	4	-0.3	2.9%	-13	-16
CCCCn1c(SCC(=O)Nc2ccc3c(c2)OCO3)nc2c1c(=O)n(C)c(=O)n2C	-1.7	-8	1.1	0.8%[38.3 µM]	-11	4
CCC(=O)N1c2ccccc2C(C)(c2ccccc2)CC1(C)C (stereo unspecified)	x	x	-0.3	1.7%	x	-16
COc1cc(/C=C(\NC(=O)c2ccccc2)C(=O)Nc2cccc(O)c2)c([N+](=O)[O-])cc1OC	-2.8	u	-0.8	1.1%	6	4
COCCn1ccc2c(OCC(=O)NCc3ccccc3)cccc2c1=O	-1.8	1	0.8	-1.5%	5	2
CN(C)C(=O)CSc1nnc(-c2ccncc2)n1Cc1ccco1	-1.3	2	1.4	1.6%	6	-12
O=C(Nc1ccccc1)c1cccc(N2CCCC2=O)c1	-1.7	27	0.0	1.8%	-1	9
O=C(NCc1ccccn1)c1cccs1	-1.1	-6	1.0	1.2%[38.3 µM]	-2	-11
Cc1ccc(O)c(-c2cc(-c3ccccc3C)[nH]n2)c1	-2.0	-7	0.1	2.2%	-6	-5
CCCC[C@H]1COCCS(=O)(=O)N1Cc1cccc([N+](=O)[O-])c1	-1.4	-7	-0.8&-0.5	0.7%	-2	20

# Part of the list above in order of count of non-hydrogen atoms, rising:
canonical_smiles	D2 agonist	D2 PAM	TRPML1 ag	PINK1 expr mod	Six1-Eya2 inh	TRPML1 inh
CN(C)/C=C(\C#N)S(=O)(=O)C(C)(C)C	-5.1	1	0.5	-2.0%	22	4
CCCC[C@H]1COCCS(=O)(=O)N1Cc1cccc([N+](=O)[O-])c1	-1.4	-7	-0.8&-0.5	0.7%	-2	20
COc1ccccc1NC(=O)C1=C(C)Nc2nnnn2C1c1cccc(Br)c1 (stereo unspecified)	-2.0	-6	-0.1	x	3	4

# From PubChem
